Source: PubChem BioAssay
Sa growth 42C: S. aureus growth inhibition at 42 and 30 °C, primary screen, LtaS inhibitor project, RN4220, two temperatures. 170,000 tested, 0.53% active. OD600, 20 h, 42 °C; active compounds read low. relative growth, % (concentration not given with the values);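 active means growth at 42 °C up to 50% and 20 or more points under that at 30 °C, or under 10% at both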;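 further: 300 nL library stock went into each well; scaled to the means of positive and negative controls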
GIV-Gai inh: inhibitors of GIV peptide binding to Galpha-i3, primary screen, biochemical, fluorescence polarization, FITC-GIV GBA peptide, rat Galphai3 | 90 min; active compounds read low; scaled: aluminum fluoride 0%, vehicle 100% | percent of control (FP), % (concentration not given with the values) | 210,000 tested, 0.42% active;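 active means replicate mean at 85% of control or lower, very high polarization wells dropped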;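 further: wells of about 15 µL received 100 nL stock; the first replicate is given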
Target sequence (P08753 whole entry, looked up): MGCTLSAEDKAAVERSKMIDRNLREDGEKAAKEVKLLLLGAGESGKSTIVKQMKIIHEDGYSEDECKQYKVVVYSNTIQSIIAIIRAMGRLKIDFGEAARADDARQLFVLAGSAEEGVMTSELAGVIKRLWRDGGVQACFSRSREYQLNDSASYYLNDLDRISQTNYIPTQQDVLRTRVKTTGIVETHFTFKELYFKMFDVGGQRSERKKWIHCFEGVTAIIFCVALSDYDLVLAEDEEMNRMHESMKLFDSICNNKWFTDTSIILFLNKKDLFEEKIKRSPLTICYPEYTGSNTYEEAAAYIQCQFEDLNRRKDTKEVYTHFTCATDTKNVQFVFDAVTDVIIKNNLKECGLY
HCMV UL50-53 inh: inhibitors of HCMV UL50-UL53 interaction, biochemical, HTRF; HCMV UL50-UL53 nuclear egress complex (human cytomegalovirus); normalized percent inhibition; inhibition, % (no concentration beside the values); 190,000 tested, 0.15% active; AID 1918969, 2023;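 active means both replicates at 50% or more, plus weaker picks with an unusually low signal ratio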;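 further: stock transfer was 100 nL into about 20 µL; 0% = negative control wells and 100% = wells with untagged competitor protein; inactives centre near -12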
Sa growth 42C second temp: recorded beside Sa growth 42C, whose call it bears; relative growth, %; measured here: growth at 30 °C;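 optical density after 20 h as mean of two plates; 100% = untreated growth and lower means inhibition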
Active calls of the source: *; · = not tested or not shown; & = joins results of further samples.

canonical_smiles | HCMV UL50-53 inh | Sa growth 42C | Sa growth 42C second temp | GIV-Gai inh
COc1cc(NC(=O)NCC2CCN(Cc3cc(C)ccc3C)CC2)cc(OC)c1 | · | 108.7 | 92.4 | 106.5
O=C(NCC1CCCO1)c1csc2c1CCCCC2 (stereo unspecified) | -24.2 | 90.8 | 87.4 | 104.4
CC(C)(C)c1ccc(OCc2cc(=O)n3ccsc3n2)cc1 | 0.2 | · | · | 96.3
CSC1=N/C(=C\c2c(C)nn(-c3ccccc3)c2Cl)C(=O)S1 | · | 117.8 | 98.9 | 110.4
Cc1ccccc1CNC(=O)CCCn1ncn2c(cc3occc32)c1=O | -27.0 | 115.3 | 82.7 | 102.6
Cc1c(-c2ccccc2)c(=O)oc2c(CN3CCN(C)CC3)c(O)ccc12 | · | 81.4 | 94.2 | 102.4
NS(=O)(=O)c1cc2c(cc1Cl)NC(CSCc1ccccc1)=NS2(=O)=O | -9.0&-24.8 | 94.5 | 86.5 | ·
Cn1c(N)c(C(=O)CN2C(=O)c3ccccc3S2(=O)=O)c(=O)n(C)c1=O | -4.0 | 108.8 | 86.4 | ·
CCCn1c(SCc2cc3c(cc2Br)OCCO3)n[nH]c1=O | -17.9 | 92.8 | 89.8 | ·
Cc1ccc2cc3cc(C(=O)N4CCCC4)sc3nc2c1 | -38.6 | · | · | 107.4
Cc1ccc2c(c1)N(CC(=O)NCCN(C)C)C(=O)CO2 | -26.5 | · | · | 97.2
O=C(O)CCCN=Cc1c(O)c2ccccc2oc1=O | -34.5 | 73.8 | 81.4 | 99.3
COc1cccc(CSc2nc3ccncc3n2Cc2ccc(C(=O)NC3CCCCC3)cc2)c1 | -13.8 | · | · | 102.1
OCCNc1nc(Nc2ccc(I)cc2)nc(N2CCOCC2)n1 | 0.0 | 98.2 | 86.5 | ·
Nc1ccc2c(c1)ncn2C1CCCCC1 | 60.8 | 87.2 | 48.8 | 116.0
COc1ccc(CCn2c(N)c(-c3nc4ccccc4s3)c3nc(C#N)c(C#N)nc32)cc1OC | -8.5 | 101.2 | 92.1 | 99.6
CCN(CC)C(=O)COc1ccccc1C(=O)NCc1ccccc1 | -8.6 | 100.0 | 87.5 | ·
C/C(=N\O)C(=O)NCCc1c[nH]c2ccccc12 | · | 95.0 | 76.0 | 102.6
Cc1cnc(C(=O)NC(C)CCc2ccccc2)cn1 (stereo unspecified) | -24.0 | 97.5 | 83.4 | ·
Cc1cc(OCCCN2CCCC2)ccc1C(C)C | -9.5 | 110.1 | 100.0 | 100.5
O=C(CSc1nccn1-c1ccccc1)Nc1ccccc1F | · | 138.1 | 83.4 | 98.1
CC(C)(C)NC(=O)CSc1nc(-c2cccs2)ccc1C#N | -28.5 | 90.2 | 79.8 | 100.5
Cn1c(=N)n(CC(=O)C(C)(C)C)c2ccccc21 | -6.4 | 86.6 | 84.1 | 100.2
Cc1nnc(NC(=O)CSc2nnc(CNC(=O)c3ccco3)n2-c2cccc(C)c2C)s1 | -6.2 | 97.9 | 90.6 | 106.5
COC(=O)C1=C(NC(=O)c2ccccc2C)CCS1 | · | 94.9 | 97.3 | 107.9
O=C(c1ccccc1)n1nc(-c2cccnc2)nc1NCc1cccs1 | -15.1 | 93.7 | 69.8 | 98.0
C/C(CN1C(=O)c2ccccc2C1=O)=N\Nc1ccccc1Cl | -6.4 | 100.7 | 69.7 | ·
CN/C(=C\C(=O)C(F)(F)F)c1ccccc1 | -19.9 | 65.3 | 77.0 | ·
CC(C)CCNC(=O)c1ccc(Cn2c(=O)c3cccn3c3cccnc32)cc1 | · | 95.9 | 89.3 | 103.4
C=CCn1c(NCc2cccc(Br)c2)nc2ccccc21 | -1.0 | · | · | 103.1
CCCCc1ccc(NC(=O)COC)cc1 | -1.0 | 86.5 | 95.9 | 101.8
CCOc1ccccc1C(=O)NCc1ccc2c(c1)CCN2C(C)=O | · | 123.6 | 79.9 | 113.0
C[n+]1cccc(O)c1I | -16.0 | 71.9 | 105.0 | 101.5
C#CCSc1nc2c(c(=O)[nH]1)C(c1cc(F)cc(F)c1)CC(=O)N2 (stereo unspecified) | -13.4 | · | · | 104.9
Cc1ccc(NC(=O)C2CCN(S(=O)(=O)c3ccc4c(c3)C(C)(C)C(=O)N4C)CC2)c(C)c1 | -16.9 | · | · | 109.5
COc1ccc(NS(=O)(=O)c2ccc(N)cc2)nn1 | -51.1&-25.0&-3.0 | 65.2 | 43.2 | ·
Cc1c(Cl)cccc1N1CC(C(=O)O)CC1=O (stereo unspecified) | -29.4 | 113.4 | 87.2 | ·
O=C(CCCN1CCN2CCCC2C1)c1ccc(F)cc1 (stereo unspecified) | -7.6 | 103.1 | 90.1 | 94.8
Cn1c(COc2ccccc2Br)nc2ccccc21 | 5.6 | 87.1 | 97.6 | 97.6
Cc1ccc(-n2nc(C)c3c(C(=O)Nc4ccc(Br)c(C)c4)cc(C)nc32)cc1 | · | 88.9 | 89.4 | 102.4

Next section, starting with the last 2 of the part before.
canonical_smiles | HCMV UL50-53 inh | Sa growth 42C | Sa growth 42C second temp | GIV-Gai inh
Cn1c(COc2ccccc2Br)nc2ccccc21 | 5.6 | 87.1 | 97.6 | 97.6
Cc1ccc(-n2nc(C)c3c(C(=O)Nc4ccc(Br)c(C)c4)cc(C)nc32)cc1 | · | 88.9 | 89.4 | 102.4
Cc1ccc(S(=O)(=O)N(CCc2ccccc2)CC(=O)Nc2ccccc2C)cc1 | · | 99.5 | 97.9 | 103.5
COc1ccc(C2SCC(=O)N2c2c(C)n(C)n(-c3ccccc3)c2=O)cc1 (stereo unspecified) | -12.7 | · | · | 100.1
Nn1c(SCc2nnc(-c3ccccc3)o2)nnc1-c1ccncc1 | -2.6 | 97.1 | 98.1 | ·
CCOC(=O)c1cnn(-c2nc(C)cc(C)n2)c1N | · | 106.1 | 83.7 | 106.4
Cc1ccc(NC(=O)CC2Nc3ccccc3NC2=O)cc1C (stereo unspecified) | -11.3 | 117.8 | 98.6 | 104.0
O=C1C=C(c2ccc(Cl)cc2)OC2(CCCC2)O1 | -23.8 | 124.8 | 78.1 | 107.2
Cc1ccc(/C=C/C(=O)N2CCC(c3nc4ccccc4o3)CC2)cc1 | -24.0 | 92.8 | 87.4 | 106.6
CCc1ccc2c(CSc3nnc(-c4ccco4)o3)cc(=O)oc2c1 | -7.7 | 92.1 | 85.4 | ·

4 of these compounds, reformatted:
> Cn1c(=N)n(CC(=O)C(C)(C)C)c2ccccc21
  HCMV UL50-53 inh: -6.4
  Sa growth 42C: 86.6
  Sa growth 42C second temp: 84.1
  GIV-Gai inh: 100.2
> Nc1ccc2c(c1)ncn2C1CCCCC1
  HCMV UL50-53 inh: 60.8
  Sa growth 42C: 87.2
  Sa growth 42C second temp: 48.8
  GIV-Gai inh: 116.0
> Cc1ccc(NC(=O)CC2Nc3ccccc3NC2=O)cc1C (stereo unspecified)
  HCMV UL50-53 inh: -11.3
  Sa growth 42C: 117.8
  Sa growth 42C second temp: 98.6
  GIV-Gai inh: 104.0
> Cc1c(-c2ccccc2)c(=O)oc2c(CN3CCN(C)CC3)c(O)ccc12
  HCMV UL50-53 inh: ·
  Sa growth 42C: 81.4
  Sa growth 42C second temp: 94.2
  GIV-Gai inh: 102.4

Other structures follow.
canonical_smiles | HCMV UL50-53 inh | Sa growth 42C | Sa growth 42C second temp | GIV-Gai inh
O=C(NCc1ccccc1Cl)c1ccc2c(c1)N(Cc1ccccc1)C(=O)c1ccccc1S2 | · | 127.0 | 107.1 | 109.0
NC(=O)CSc1nnc(-c2ccccc2)o1 | 3.7 | 99.5 | 96.2 | 106.7
CC(=O)N1CCOCCN(C(C)=O)CCOCC1 | -2.8 | 86.4 | 90.7 | ·
CN(C)c1ccc(/C=C(/C#N)c2ccc(C#N)cc2)cc1 | -10.3 | 98.6 | 95.8 | 11.1*
O=C(Nc1sc2c(c1C(=O)NCc1ccco1)CCCC2)c1cc(=O)c2cc(Cl)ccc2o1 | -5.1 | 88.2 | 83.5 | 101.1
COC(=O)c1sccc1NC(=O)C(C)(C)C | -10.0 | 102.4 | 80.5 | 105.2
CCCS(=O)(=O)c1nc(S(=O)(=O)c2ccc(C)cc2)c(N(C)Cc2ccccc2)s1 | -9.5 | 108.3 | 99.7 | 103.8
COc1ccc(C=Nc2cc(NS(C)(=O)=O)ccc2C)cc1 | · | 82.7 | 79.4 | 106.3
CC(CCc1ccccc1)Nc1ccc2c(c1)OCO2 (stereo unspecified) | -13.4 | 117.6 | 105.3 | 108.8
CC1CC(c2ccccc2)n2ncnc2N1 (stereo unspecified) | -1.8 | 99.3 | 93.4 | ·
N#CC(C#N)=Cc1cccn1CCCn1ccnc1 | -37.9 | 100.3 | 86.9 | 103.5
CSc1ccc(CCNC(=O)c2ccc3c(c2)nc2n3CCC(C)C2)cc1 (stereo unspecified) | · | 90.5 | 91.6 | 102.6
COCCCNc1nc2cc(OC)c(OC)cc2c2nc(-c3ccccc3)nn12 | -2.8 | 97.6 | 65.6 | 104.8
COc1ccc(-c2nc(COc3ccc(Cl)cc3Cl)no2)cc1 | -25.4 | 95.5 | 90.9 | 101.9
COC(=O)c1ccccc1NC(=O)c1cnc(Nc2ccc(OC)cc2)c2ccccc12 | -2.8 | 97.4 | 85.7 | 97.6
Cc1ccc(N=C2SCC(=O)N2C)cc1 | · | 131.3 | 88.6 | 104.8
Cc1ccc2oc(=O)c3cc(C(=O)NCc4cccs4)sc3c2c1 | · | 104.8 | 81.4 | 101.3
NC(=O)NC(CC(=O)N1CCc2ccccc2C1)c1ccc(Cl)cc1 (stereo unspecified) | -29.7 | 99.4 | 88.8 | ·
CNC(=O)CSc1nc(-c2ccccc2)cn1N | 6.7 | 84.5 | 87.6 | ·
COc1ccc(NC(=O)Cn2c(=O)n(Cc3ccco3)c(=O)c3cc(OC)c(OC)cc32)cc1 | -11.8 | 114.9 | 95.5 | 106.0
CCn1c(Cc2ccc(OC)cc2)nnc1SCC(=O)NC1=NCCS1 | -13.0 | 95.1 | 85.7 | 104.2
O=C(CSc1nc(-c2ccccc2)[nH]c1-c1ccc(F)cc1)NC1CCCC1 | -9.6 | 101.5 | 91.5 | 98.9
O=C(c1ccccc1)N1N=C(c2ccccc2)CC1c1ccc2c(c1)OCO2 (stereo unspecified) | 14.0 | · | · | 101.5
O=C(CNC(=O)c1ccccc1Cl)Nc1ccc(S(=O)(=O)N2CCOCC2)cc1 | -12.6 | 95.0 | 97.0 | ·
O=C(CN1C(=O)S/C(=C\c2c(Cl)cccc2Cl)C1=O)Nc1cc([N+](=O)[O-])ccc1O | -21.9 | · | · | 101.1
Cc1ccc(NC(=O)c2ccc(NC(=O)N3CCSc4ncccc43)cc2)c(C)c1 | · | 86.7 | 91.8 | 99.6
O=C(CSc1ncc(CO)n1Cc1ccccc1)Nc1ccc(C(F)(F)F)cc1 | · | 110.8 | 87.9 | 100.5
CCC(Cc1ccccc1)NC(=O)c1ccc2c(c1)NC(=O)c1ccccc1S2 (stereo unspecified) | · | 113.2 | 80.5 | 101.8
O=C(NC1CC1)c1ccc(CS(=O)(=O)c2ccccc2)o1 | 4.8 | 92.9 | 85.4 | 103.7
Cn1c(C(=O)O)c(CNCCc2ccco2)c2ccccc21 | -23.1 | 104.1 | 87.7 | 105.2
Oc1cccnc1Cc1ccccc1 | -8.2 | 83.5 | 76.0 | 110.6
CC(C)=CC(=O)NCCc1ccccc1 | -3.7 | 126.5 | 94.7 | 105.9
CCN(Cc1ccncc1)S(=O)(=O)c1cc(/C=C/C(=O)O)cc(OC)c1OC | -14.1 | 105.6 | 96.2 | ·
COc1ccc(C2c3cccn3-c3sc4c(c3CN2C(=O)Nc2cc(F)ccc2F)CCN(C)C4)cc1 (stereo unspecified) | -15.5 | · | · | 108.4
CC(=O)N1c2ccc(S(=O)(=O)NCC3CCC(C(=O)Nc4cccc(C)c4C)CC3)cc2CC1C (stereo unspecified) | · | 140.1 | 72.7 | 108.0
Cc1ccc(OCC(=O)Nc2cccc(C(=O)OCc3cc(=O)n4c(C)csc4n3)c2)cc1 | · | 103.7 | 100.7 | 98.8
Cc1cc(C)c2oc(C(=O)Nc3nc4ccc(Cl)cc4s3)cc(=O)c2c1 | -14.3 | 91.3 | 85.5 | 104.2
O=C(Nc1ccc2oc(-c3ccccc3Br)nc2c1)c1cccc([N+](=O)[O-])c1 | 7.0 | · | · | 103.1
CCn1nc(C)cc1-c1nnc(-c2ccccc2Cl)o1 | 2.7 | 92.5 | 93.4 | 105.4
COC(=O)c1ncn2c1C(=O)N(Cc1cccc(C)c1)C(C)(C(=O)NC1CCCC1)C2 (stereo unspecified) | -29.3 | · | · | 102.2
CCOc1nc(N)nc(NC)n1 | · | 85.9 | 97.4 | 105.4
Cc1ccc(S(=O)(=O)NCCc2csc3nc(-c4ccccc4F)nn23)cc1C | · | 107.3 | 83.8 | 104.1
